From PubChem
NOMO-1 viab – STK33 inhibitor candidate reducing NOMO-1 cell viability. AID 2330. NOMO-1 AML viability, CellTiter-Glo luminescence, 72 h. 37,000 compounds, 7.5% hits. inhibition, % (concentration not given with the values);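 active means most replicates above 80%; inconclusive means exactly half above 80%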;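 further: wells of about 30 µL received 25 nL stock; 0% = median of vehicle wells and 100% = reference inhibitor level; the first replicate is given; inactives centre near 10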
An asterisk follows results filed as active; ? = inconclusive. This is a subset; count on the stated rates, not on these rows.

molecule | NOMO-1 viab
Cc1ccc(S(=O)(=O)Nc2cccc3c2O[C@H](CN(C)S(=O)(=O)c2cn(C)cn2)[C@@H](C)CN([C@@H](C)CO)C3=O)cc1 | -5
C[C@@H]1CN([C@@H](C)CO)C(=O)c2cccc(NS(=O)(=O)c3ccc(Cl)cc3)c2O[C@H]1CN(C)C(=O)Nc1ccccc1 | -2
C[C@@H]1CN([C@H](C)CO)C(=O)c2cc(NC(=O)Nc3ccccc3)ccc2O[C@@H]1CN(C)C(=O)Nc1cccc2ccccc12 | 90*
COc1cccc(NC(=O)COc2ccccc2C(N)=O)c1 | 2
C[C@@H]1CN([C@@H](C)CO)C(=O)c2cc(NS(=O)(=O)c3cn(C)cn3)ccc2O[C@H]1CN(C)S(=O)(=O)c1ccc(Cl)cc1 | -15
Cc1noc(C)c1S(=O)(=O)Nc1ccc2c(c1)C(=O)N([C@@H](C)CO)C[C@H](C)[C@@H](CN(C)S(=O)(=O)c1ccc(Cl)cc1)O2 | 14
Cc1noc(C)c1NC(=O)N(C)C[C@@H]1Oc2ccc(N(C)C)cc2CC(=O)N([C@H](C)CO)C[C@H]1C | -4
Cc1ccc(S(=O)(=O)N(C)C[C@@H]2Oc3ccc(NC(=O)CCC(F)(F)F)cc3C(=O)N([C@@H](C)CO)C[C@H]2C)cc1 | -10
CC(C)NC(=O)Nc1ccc2c(c1)C(=O)N([C@@H](C)CO)C[C@@H](C)[C@H](CN(C)C(=O)Nc1cccc3ccccc13)O2 | 26
CCN1/C(=C/C2=CC(=O)CC(C)(C)C2)Sc2ccccc21 | 113*
Cc1ccc(S(=O)(=O)Nc2cccc3c2O[C@@H](CN(C)C(=O)Nc2ccccc2)[C@@H](C)CN([C@@H](C)CO)C3=O)cc1 | 37
COc1nnc(-c2ccc(N3CCOCC3)c(NS(=O)(=O)c3ccc(Cl)cc3)c2)c2ccccc12 | 10

Next part, overlapping the part above by 3 compounds.
molecule | NOMO-1 viab
CCN1/C(=C/C2=CC(=O)CC(C)(C)C2)Sc2ccccc21 | 113*
Cc1ccc(S(=O)(=O)Nc2cccc3c2O[C@@H](CN(C)C(=O)Nc2ccccc2)[C@@H](C)CN([C@@H](C)CO)C3=O)cc1 | 37
COc1nnc(-c2ccc(N3CCOCC3)c(NS(=O)(=O)c3ccc(Cl)cc3)c2)c2ccccc12 | 10
C[C@@H]1CN([C@H](C)CO)C(=O)c2cccc(NC(=O)Nc3ccc4c(c3)OCO4)c2O[C@H]1CN(C)Cc1ccccc1 | 97*
C[C@H]1CN([C@@H](C)CO)C(=O)c2cc(NS(C)(=O)=O)ccc2O[C@@H]1CN(C)C(=O)Nc1ccccc1 | 34
COc1ccc(CN(C)C[C@@H]2Oc3ccc(NS(=O)(=O)c4ccc(F)cc4)cc3CC(=O)N([C@@H](C)CO)C[C@@H]2C)cc1 | 15
COc1ccc(C(=O)NCCn2cc(SC(C)c3ccccc3)c3ccccc32)cc1 (configuration not stated) | 129*
C[C@@H]1CN([C@H](C)CO)C(=O)c2cccc(N(C)C)c2O[C@H]1CN(C)C(=O)NC1CCCCC1 | -11
COCCNC(=O)c1ccccc1NC(=O)c1ccccc1OC | -3
C[C@@H]1CCCCO[C@@H](CN(C)C(=O)Nc2ccccc2)[C@@H](C)CN([C@H](C)CO)C(=O)c2cc(NC(=O)c3ccccc3)ccc2O1 | 31
N#Cc1ccc(C(=O)Cn2cc(C(F)(F)F)ccc2=O)cc1 | 10
C[C@H](CO)N1C[C@H](C)[C@H](CN(C)Cc2ccncc2)Oc2ccc(NS(=O)(=O)c3ccccc3)cc2CC1=O | 28
CC(C)NC(=O)Nc1ccc2c(c1)C(=O)N([C@H](C)CO)C[C@H](C)[C@@H](CN(C)S(=O)(=O)c1ccc(F)cc1)O2 | -23
C[C@@H]1CN([C@H](C)CO)C(=O)Cc2cc(NC(=O)Nc3ccc(F)cc3)ccc2O[C@@H]1CN(C)C(=O)NC1CCCCC1 | 18
C[C@@H]1CN([C@H](C)CO)C(=O)c2cc(NC(=O)CCN3CCOCC3)ccc2O[C@@H]1CN(C)S(=O)(=O)c1ccccc1 | 5
COCc1nc2c([nH]1)c(=O)n(C)c(=O)n2CC(C)C | -1
Cc1noc(C)c1NC(=O)Nc1cccc2c1O[C@@H](CN(C)C(=O)NC(C)C)[C@@H](C)CN([C@@H](C)CO)C2=O | 0
C[C@@H]1CN([C@H](C)CO)C(=O)c2cc(NC(=O)C3CC3)ccc2O[C@H]1CN(C)C(=O)Nc1ccccc1 | -16
C[C@@H]1CN([C@H](C)CO)C(=O)c2cc(NC(=O)Cc3cn(C)c4ccccc34)ccc2O[C@H]1CN(C)Cc1ccc(Cl)c(Cl)c1 | ?
O=C(Nc1cccc(C(F)(F)F)c1)c1cc([N+](=O)[O-])ccc1NCc1cccnc1 | 37
C[C@@H]1CN([C@@H](C)CO)C(=O)c2cc(NC(=O)CCCN(C)C)ccc2O[C@H]1CN(C)S(=O)(=O)c1ccc(F)cc1 | 0
CC(Oc1ccc(Cl)cc1Cl)C(=O)Nc1cc(C(F)(F)F)ccc1N1CCOCC1 (configuration not stated) | 59
C[C@@H]1CCCCO[C@@H](CN(C)CC2CC2)[C@@H](C)CN([C@H](C)CO)C(=O)c2cc(NC(=O)NC3CCCCC3)ccc2O1 | 16
Cc1nn2c(CN(C(=O)c3ccco3)c3ccccc3)nnc2c2ccccc12 | 0
C[C@@H]1CN([C@@H](C)CO)C(=O)c2cc(NC(=O)CCCN(C)C)ccc2O[C@@H]1CN(C)S(=O)(=O)c1ccccc1 | 4
Cc1nnc(SCC(=O)NC2CCCCCC2)n1-c1ccccc1 | 2
COc1ccc(CN(C)C[C@H]2Oc3ccc(NS(=O)(=O)c4cccs4)cc3CC(=O)N([C@@H](C)CO)C[C@@H]2C)cc1 | 12
C[C@@H]1CN([C@H](C)CO)C(=O)c2cc(NS(=O)(=O)c3ccc(Cl)cc3)ccc2O[C@@H]1CN(C)S(=O)(=O)c1cccs1 | 40
C[C@@H]1CCCCO[C@H](CN(C)S(=O)(=O)c2ccccc2)[C@@H](C)CN([C@H](C)CO)C(=O)c2cc(NC(=O)C3CCCCC3)ccc2O1 | 5
CNC[C@@H]1Oc2c(NC(=O)C3CCOCC3)cccc2C(=O)N([C@H](C)CO)C[C@@H]1C | 15
COC(=O)CCC(=O)Nc1cc([N+](=O)[O-])ccc1OC | -4
C[C@H]1CN([C@@H](C)CO)C(=O)c2cccc(NC(=O)NC3CCCCC3)c2O[C@H]1CN(C)S(=O)(=O)c1ccc(Cl)cc1 | 98*
C[C@H]1CN([C@@H](C)CO)C(=O)c2cccc(NC(=O)C3CCOCC3)c2O[C@@H]1CN(C)C(=O)Nc1ccccc1 | -9
CC(C)c1cccc2c1OC(C(C)C)C(=S)N2CC(=O)O (configuration not stated) | 19
O=C(CSc1nc2ccccc2c(=O)[nH]1)Nc1ccc(Cl)cc1Cl | 31
CNC[C@H]1Oc2ccc(NC(=O)C3CCCCC3)cc2CC(=O)N([C@@H](C)CO)C[C@H]1C | 12
Cc1noc(C)c1NC(=O)Nc1cccc2c1O[C@@H](CN(C)Cc1ccc(Cl)c(Cl)c1)[C@H](C)CN([C@H](C)CO)C2=O | 12
CC(C)NC(=O)N(C)C[C@@H]1Oc2ccc(NC(=O)Cc3cn(C)c4ccccc34)cc2C(=O)N([C@H](C)CO)C[C@@H]1C | 5
CCn1c(SCC(=O)Nc2cc3oc4ccccc4c3cc2OC)nnc1-c1cccs1 | 50

Structural class: those above with a thiophene ring, fused or not (three)
molecule | NOMO-1 viab
COc1ccc(CN(C)C[C@H]2Oc3ccc(NS(=O)(=O)c4cccs4)cc3CC(=O)N([C@@H](C)CO)C[C@@H]2C)cc1 | 12
C[C@@H]1CN([C@H](C)CO)C(=O)c2cc(NS(=O)(=O)c3ccc(Cl)cc3)ccc2O[C@@H]1CN(C)S(=O)(=O)c1cccs1 | 40
CCn1c(SCC(=O)Nc2cc3oc4ccccc4c3cc2OC)nnc1-c1cccs1 | 50

Remaining list, next part
molecule | NOMO-1 viab
CSc1sc(-c2nc(C(C)(C)C)cs2)c2c1C(=O)CCC2 | -24
C[C@H]1CN([C@@H](C)CO)C(=O)c2cccc(NC(=O)Nc3ccc4c(c3)OCO4)c2O[C@@H]1CN(C)Cc1ccc(C(=O)Nc2ccccc2N)cc1 | 127*
C[C@@H]1CN([C@@H](C)CO)C(=O)c2cccc(NC(=O)c3ccncc3)c2O[C@@H]1CN(C)Cc1ccc(C(=O)O)cc1 | 2
C[C@@H]1CN([C@@H](C)CO)C(=O)c2cc(NS(C)(=O)=O)ccc2O[C@@H]1CN(C)S(=O)(=O)c1ccccc1 | 8
Cc1ccc(C(=O)CSc2nc3sc(C)c(C)c3c(=O)[nH]2)cc1 | 14
C[C@H](CO)N1C[C@H](C)[C@H](CN(C)Cc2ccncc2)Oc2ccc(NC(=O)CCC(F)(F)F)cc2CC1=O | 15
COc1ccc(CN(C)C[C@H]2OCCCC[C@@H](C)Oc3ccc(NS(=O)(=O)c4ccc(OC)cc4)cc3C(=O)N([C@H](C)CO)C[C@@H]2C)cc1 | 25
COc1ccc(S(=O)(=O)N(C)C[C@@H]2Oc3ccc(NC(=O)CCN4CCOCC4)cc3C(=O)N([C@@H](C)CO)C[C@@H]2C)cc1 | 12
Cc1cc(Br)ccc1OCC(=O)NC(=S)Nc1ccccc1C(N)=O | -7
CC(=O)c1cc2c(cc1O)OC(C)(C)C=C2 | 18
COC(=O)c1ccc(Cl)c(NC(=O)CN(c2cccc(F)c2)S(C)(=O)=O)c1 | ?
C[C@H](CO)N1C[C@H](C)[C@@H](CN(C)C(=O)Nc2ccc3c(c2)OCO3)Oc2c(NS(=O)(=O)c3ccccc3)cccc2C1=O | -2
Cc1cc(C(=O)Nc2cccc3c2O[C@H](CN(C)C(=O)Nc2ccc(F)cc2)[C@H](C)CN([C@H](C)CO)C3=O)n(C)n1 | -3
CC(C)NC(=O)N(C)C[C@H]1Oc2ccc(NS(C)(=O)=O)cc2C(=O)N([C@@H](C)CO)C[C@H]1C | -13
O=C(O)CCNC(=O)c1ccc(C#CC2(O)CCCCC2)cc1 | 4
COc1ccc(NC(=O)Cn2nnc(-c3ccccc3Cl)n2)c(OC)c1 | 12
C[C@H](CO)N1C[C@H](C)[C@@H](CN(C)Cc2ccc3c(c2)OCO3)Oc2ccc(NC(=O)Nc3ccccc3)cc2C1=O | 25
CC(=O)c1cn(CC(=O)Nc2cccc(C(F)(F)F)c2)c2ccccc12 | 52
COc1ccc(NC(=O)N(C)C[C@@H]2Oc3c(NS(C)(=O)=O)cccc3C(=O)N([C@@H](C)CO)C[C@@H]2C)cc1 | 9
COc1ccc(NC(=O)Nc2ccc3c(c2)C(=O)N([C@@H](C)CO)C[C@H](C)[C@H](CN(C)C)O3)cc1 | 10
C[C@@H]1CN([C@H](C)CO)C(=O)c2cc(NS(=O)(=O)c3ccc(Cl)cc3)ccc2O[C@H]1CN(C)Cc1ccccc1 | 10
COC(=O)c1c(NC(=O)COc2cc(C)ccc2C)sc2c1CCC2 | -7
C[C@H](CO)N1C[C@H](C)[C@@H](CN(C)Cc2ccc(C(=O)O)cc2)Oc2c(NS(C)(=O)=O)cccc2C1=O | -1
Cc1ccc(S(=O)(=O)N(C)C[C@H]2Oc3ccc(NC(=O)CCC(F)(F)F)cc3CC(=O)N([C@@H](C)CO)C[C@H]2C)cc1 | 2
O=C(CNS(=O)(=O)c1ccccc1)Nc1cccc(F)c1 | -2
C[C@H](CO)N1C[C@H](C)[C@H](CN(C)S(=O)(=O)c2ccc(Cl)cc2)Oc2c(NS(=O)(=O)c3cn(C)cn3)cccc2C1=O | -2
O=[N+]([O-])c1ccc(NCCNS(=O)(=O)c2ccc(Br)cc2)cc1 | 7
C[C@@H]1CN([C@H](C)CO)C(=O)c2cccc(NS(C)(=O)=O)c2O[C@H]1CN(C)C(=O)Nc1ccc(F)cc1 | 28
Cc1ccc(OCC(=O)Nc2ccc3oc(-c4ccccc4C)nc3c2)c(C)c1 | 14
Cc1noc(C)c1NC(=O)N(C)C[C@@H]1Oc2ccc(N(C)C)cc2C(=O)N([C@@H](C)CO)C[C@@H]1C | 27
CNC[C@@H]1Oc2ccc(NC(=O)Cc3cn(C)c4ccccc34)cc2CC(=O)N([C@@H](C)CO)C[C@@H]1C | -1
C[C@H]1CN([C@@H](C)CO)C(=O)Cc2cc(NC(=O)c3ccncc3)ccc2O[C@H]1CN(C)Cc1ccc(-c2ccccc2)cc1 | 89*
C[C@H]1CN([C@@H](C)CO)C(=O)c2cc(NS(=O)(=O)c3ccc(Cl)cc3)ccc2O[C@H]1CN(C)C(=O)Nc1ccccc1 | 6
COc1ccc(OCC(=O)Nc2ccc3oc(-c4ccc(C)c(C)c4)nc3c2)cc1 | 25
COc1ccc(S(=O)(=O)Nc2cccc3c2O[C@@H](CN(C)Cc2ccccc2)[C@@H](C)CN([C@@H](C)CO)C3=O)cc1 | 9
CCn1c(SCC(=O)Nc2ccc(C)c(C)c2)nnc1-c1ccc(Cl)cc1 | 23
COC(=O)c1ccc(Cl)c(NC(=O)CN2CCOCC2)c1 | 22
C[C@@H]1CN([C@H](C)CO)C(=O)Cc2cc(N(C)C)ccc2O[C@H]1CN(C)C(=O)NC1CCCCC1 | 2
O=C(Nc1cscc1S(=O)(=O)c1ccccc1)c1ccccc1Cl | 41
O=c1[nH]c2cc(C(F)(F)F)ccc2n1-c1cc(C(F)(F)F)ccc1O | 51
C[C@H](CO)N1C[C@H](C)[C@@H](CN(C)C(=O)Nc2cccc3ccccc23)Oc2c(NS(=O)(=O)c3ccccc3)cccc2C1=O | 26
NC(=O)CN(Cc1ccc(Cl)c(Cl)c1)S(=O)(=O)c1ccc(Br)cc1 | 1
Cc1ccccc1NC(=O)CSc1nc(O)cc(=O)[nH]1 | -11
O=C(CSC1CC(=O)N(c2ccc(Br)cc2)C1=O)Nc1ccc(Cl)c(Cl)c1 (configuration not stated) | 7
COc1ccc(C)cc1S(=O)(=O)N1CCCC(C(=O)Nc2ccccc2C(F)(F)F)C1 (configuration not stated) | -30
